# Screens as filed in PubChem BioAssay.
# Ba CapD inh: CapD enzyme inhibition. purified CapD enzyme, fluorescence intensity read-out; hits give low values; some hits fall short of the stated cut. z-score (test concentration not listed). actives 0.23% (n = 140,000). AID 492967;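 active = z-score under -4 in either of two replicates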;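 note: stock transfer was 100 nL into about 40 µL; score is relative to mean and spread of the plate; one replicate is shown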
# AID504770: growth inhibitors of E. coli YBA685 in a screen for V. cholerae RctB (chromosome II replication) inhibitors; E. coli YBA685 rctB-dependent plasmid, OD600 growth, 3 h; hits give low values; z-score (no concentration beside the values); actives 0.27% (n = 130,000); AID 504770;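 active = z-score under -2 on both plates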;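 note: wells of about 30 µL received 100 nL stock; score is relative to mean and SD of the test wells; the first replicate is given; strong numbers were not always called active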
# Active calls of the source: *; nt = not tested or not shown. An excerpt; the hit share may differ from the screen's.
1	CCCC(=O)NCc1ccc(OC)cc1
2	Cc1c(S(=O)(=O)c2ccc(Cl)cc2)csc1C(=O)NC1CCN(Cc2ccccc2)CC1
3	O=c1sc2ccccc2n1COc1ccccc1
4	CSc1nnc(SCC(N)=S)s1
5	COc1ccc(C2CC(c3cccs3)=NN2C(=O)CSc2nnc(CNC(=O)c3ccccc3OC)n2C)cc1 (centres undefined)
6	Cc1[nH]c2ccccc2c1C(=O)Cn1c(=O)oc2ccccc21
7	Cc1cc(C)c(C#N)c(Oc2ccccc2Br)n1
8	CCCCN1CC(C(=O)OCC)=C(O)C1=O

screen / no.	1	2	3	4	5	6	7	8
Ba CapD inh	0.18	0.14	0.42	-0.57	12	nt	1.9	0.26
AID504770	-0.85	-1.2	0.9	-2	nt	-0.45	-0.55	nt

9	Cc1cccc2cc(C3CC(c4ccccc4)=NN3C(=O)CCC(=O)O)c(=O)[nH]c12 (centres undefined)
10	CCOc1ccc(/C=N/NC(=S)NC)cc1
11	COc1ccc(OC)c(CCC(=O)O)c1
12	COc1ccc(NC(=O)N2CCC(CN3CCCCC3)CC2)cc1
13	N#CC(C(=O)NCc1ccccc1)c1nc2ccccc2nc1Cl (centres undefined)
14	Cc1cc(NC(=O)CN2CC(C)CC(C)C2)nc2c1c(=O)oc1ccccc12 (centres undefined)
15	CCOC(=O)c1cnc(=O)[nH]c1C(F)(F)F
16	CNC(=O)CC1Sc2ccccc2NC1=O (centres undefined)

screen / no.	9	10	11	12	13	14	15	16
Ba CapD inh	0.46	-0.65	-0.08	-1.1	12	nt	-0.13	-0.44
AID504770	nt	nt	nt	-0.65	0.55	1.8	nt	-1.1

17	COc1cc2c(cc1OC)C(c1ccccc1)=NC1(CCCC1)C2
18	CCCCC(C(=O)Nc1ccc(C)c(Cl)c1)N1C(=O)C2C3c4ccccc4C(c4ccccc43)C2C1=O (centres undefined)
19	O=C(O)CCc1nc2cccnc2n1C1CC1
20	CCOc1ccccc1NC(=O)CC1SC(=N)N(c2ccccc2)C1=O (centres undefined)
21	CCCN1CCC(N(C(=O)c2ccc(NC(=O)C(c3ccccc3)c3ccccc3)cc2)C2CC2)CC1
22	Cc1oc2c(c1C(=O)NC(C)c1ccccc1)C(=O)c1ccccc1C2=O (centres undefined)
23	Cn1cccc1/C=N/n1cnnc1
24	Cc1ccc(S(=O)(=O)N(CC(=O)O)CC(=O)O)cc1

screen / no.	17	18	19	20	21	22	23	24
Ba CapD inh	-0.58	-0.14	0.09	nt	-0.53	-0.045	-5.5*	nt
AID504770	nt	nt	0.25	-0.75	nt	-0.1	0.3	-1.1

25	CC(C)CNC(=O)COn1nnc2ccc(S(=O)(=O)N(C)C)cc21
26	Cc1cc2c(cc1C)N(C(=O)CCC1CCCCC1)C(C)(C)c1ssc(=S)c1-2
27	Cc1cnc(NC(=O)c2c(O)c3cccc4c3n(c2=O)CCC4)s1
28	CN(C)/C=C1\C(=O)c2ccc(Cl)cc2N(Cc2c(F)cccc2Cl)S1(=O)=O
29	Brc1cc2c(cc1CSc1nnc3ccccn13)OCO2
30	Cc1cnc(C(=O)OCC(=O)c2ccc3[nH]c(=O)[nH]c3c2)cn1
31	COc1cc2c(cc1OC)CN(Cn1nc(C(F)(F)F)n(C)c1=S)CC2
32	O=C1CC(c2ccc(Cl)cc2)C2=C(CC(c3cccs3)CC2=O)N1 (centres undefined)

screen / no.	25	26	27	28	29	30	31	32
Ba CapD inh	nt	0.34	-1.5	-1.2	nt	nt	nt	-0.35
AID504770	0.85	nt	nt	1.4	-0.1	0.15	-0.15	-1.8

33	COc1cc2c(cc1OBr)C(Cc1ccc(OC(C)=O)cc1)N(C)C2 (centres undefined)
34	COc1ccc(CN=Cc2cc(Cl)cc(Cl)c2O)cc1
35	COC(=O)c1ccc(COc2ccc3c(c2)CCC3)o1
36	N#CC(C#N)=Cc1cn(CC(=O)N2CCOCC2)c2ccccc12
37	COc1ccc(CC(=O)N=c2sc3ccccc3n2C)cc1S(=O)(=O)N1CCOCC1
38	CCOC(=S)Nc1ccc(I)cc1
39	NC(=O)C1CCN(C(=O)c2ccc3c(=O)n(C4CCCCC4)c(SCc4ccncc4)nc3c2)CC1
40	COc1ccc2nc(SCC(=O)Nc3cc(NC(=O)CSc4nc5ccc(OC)cc5[nH]4)cc(C(=O)O)c3)[nH]c2c1

screen / no.	33	34	35	36	37	38	39	40
Ba CapD inh	0.88	-0.5	-0.52	nt	nt	-0.24	0.7	-1.5
AID504770	-0.05	-0.65	0.2	1.7	-0.55	0.35	nt	nt

41	CC1CCCCN1C(=O)CSc1nnc2sc3ccccc3n12 (centres undefined)
42	O=c1oc2cc(S(=O)(=O)NCCCO)ccc2c2ccc(S(=O)(=O)NCCCO)cc12
43	COc1cc2cc3c(=O)oc(-c4ccccc4F)nc3nc2cc1OC
44	O=C(/C=C/c1ccc(OC(F)(F)F)cc1)NCc1ccco1
45	Cc1ccc2nc(-c3cc4ccccc4oc3=O)[nH]c2c1
46	O=C(Nc1ccc(S(=O)(=O)N2CCCC2)cc1)C1COc2ccccc2O1 (centres undefined)
47	C=CCN(CC=C)C(=O)CSc1ccc(OCC)cc1
48	COc1ccc(/C=N/n2cnc3scc(-c4cccs4)c3c2=O)cc1OC

screen / no.	41	42	43	44	45	46	47	48
Ba CapD inh	nt	1.2	2.6	-0.26	nt	0.19	nt	nt
AID504770	2.2	-1.2	1.5	1.1	0.1	-0.15	-0.3	1.3

# Following part:
# Every second line gives: Ba CapD inh | AID504770
49	Cc1nc(C(F)(F)F)ccc1C(=O)Oc1ccccc1N1CCOCC1
 : -0.88 | 0.2
50	CC(C)c1ccc(N(CC(N)=O)S(C)(=O)=O)cc1
 : nt | -0.45
51	O=C(c1cc(Br)cc2c1OCC2)N1CCCCC1
 : 0.37 | 0.5
52	COc1cc(Br)c(CN2CCN(C(=O)OCCc3cccc(C)c3)CC2)cc1OC
 : -0.52 | nt
53	Cc1ccc2c(cnn2C(=O)CCC(=O)N2CCCCC2)c1
 : 0.39 | -0.35
54	CC(NS(=O)(=O)c1ccc(Br)cc1)C(=O)NCc1ccco1 (centres undefined)
 : nt | 0.95
55	CCn1c(C(=O)N2CCC(C(=O)NCc3ccccc3)CC2)cc2sccc21
 : -1.4 | -0.1
56	Cc1ccsc1CCNC(=O)c1cc(S(=O)(=O)N2CCCCC2)c[nH]1
 : -0.48 | -0.75
57	CC1CCCN(C(=O)c2cccc(S(=O)(=O)N3CCCC3)c2)C1 (centres undefined)
 : 0.02 | -0.7
58	COc1cc(C(=O)Oc2ccc3c(=O)c(Oc4ccccc4Br)coc3c2)cc(OC)c1OC
 : -0.72 | nt
59	Cc1cc(C)cc(NC(=O)Oc2ccccc2N2CCCCC2)c1
 : -0.65 | -0.85
60	C=C1C(Cl)=C(c2ccccc2)Oc2ccccc2C1c1ccc(C)cc1 (centres undefined)
 : -0.33 | nt
61	COc1cc(NC(=O)Nc2cccc3ccccc23)ncn1
 : 2.1 | 0.3
62	NC(=O)c1cccc2c1-c1ccccc1/C2=N/O
 : 0.015 | 0.65
63	COC(=O)C(C(=O)OC)c1ccc(Cl)cc1[N+](=O)[O-]
 : 0.57 | nt
64	NC(=O)CSc1ccc2ccccc2n1
 : -0.12 | 0.35
65	O=C1CC(Nc2ccc3c(c2)OCO3)C(=O)N1C1CCCCC1 (centres undefined)
 : -0.37 | -0.65
66	Cc1nn(Cc2ccc(C(=O)NC(C)(C)C)o2)c(C)c1Br
 : 0.3 | 0.15
67	CCCN(C(=O)Cn1c(=O)oc2ccccc21)c1ccccc1OC
 : 0.43 | -1.1
68	CN(C)c1nc(-c2ccccc2)c2cc(Cl)ccc2n1
 : -0.39 | 0.3
69	COc1cc2c(cc1OC)CN(CC(=O)NC(=O)NC1CCCCC1)CC2
 : nt | 0.05
70	CCc1cc(C(=O)Cc2ccc3c(c2)OCCCO3)c(O)cc1OC
 : nt | 0.25
71	COC(=O)C1=CC(C(=O)c2ccccc2)=NN(c2ccccc2)C1C(=O)OC (centres undefined)
 : -1.5 | 0.2
72	c1ccc(-c2nc(C34CC5CC(CC(C5)C3)C4)cs2)cc1
 : -0.03 | -0.85
73	O=C(c1ccc2c(c1)sc1nc(-c3ccccc3)cn12)N1CCCCC1
 : 0.64 | -0.5
74	CCN(CCS(=O)(=O)c1ccc(Cl)cc1)C(=O)Nc1ccccc1
 : 0.35 | nt
75	c1csc(-c2nnco2)c1
 : -0.38 | 1.6
76	Cc1ccccc1-n1c(=S)sc2c1nc(SCC1OCCO1)n1c3ccccc3nc21
 : -0.24 | nt
77	CCC(C(=O)N1CC2(C)CC1CC(C)(C)C2)N1C(=O)c2ccccc2C1=O (centres undefined)
 : nt | -0.1
78	Cc1ccc(CC(C(=O)Nc2ccc(F)cc2)C(C)C(=O)O)cc1 (centres undefined)
 : -0.53 | 2.5
79	CCCCn1c(SCc2cc(=O)n3ccsc3n2)nc2cc(S(N)(=O)=O)ccc21
 : nt | 0.8
80	CCc1ccc(NC(=O)C(C)OC(=O)C2CCC(=O)N2)cc1 (centres undefined)
 : nt | -0.3
81	CCOC(=O)c1ccc(Oc2nc(NC(C)(C)C)nc(N(C)C)n2)cc1
 : 0.49 | -0.25
82	CCNC(=O)c1ccc(OC)c(OC)c1
 : -0.62 | 2.1
83	CCC[C@@H]1C(=O)OC[C@@H]1Cc1cncn1C
 : -0.37 | nt
84	COc1ccc(/C=C2/SC(=S)N(CN3CCC(C)CC3)C2=O)cc1
 : -1.6 | nt
85	O=C1NC(c2cccs2)Nc2ccccc21 (centres undefined)
 : 63 | 1.9
86	COc1ccc(C(=O)Nc2cccc(S(C)(=O)=O)c2)cc1
 : 0.59 | -0.3
87	C=CCN(Cc1nc(-c2ccc(Cl)cc2)no1)C(C)=O
 : nt | 1.4
88	CC(=O)N1CCC2(CC1)C1CN(C(C)=O)CC=C1C(C#N)=C(N)C2(C#N)C#N (centres undefined)
 : -0.26 | 1.9
89	CC(=O)Nc1sc2c(c1C(=O)O)CCC2
 : nt | -0.65
90	CC(C)NC(=O)c1cc2n(n1)C(C(F)(F)F)CC(c1cccs1)N2 (centres undefined)
 : 0.12 | 0.05
91	C/C(=N\N)c1c(-c2ccccc2)c2cc(C)ccc2[nH]c1=O
 : -0.7 | -0.45
92	CC1Sc2ccc(C(=O)Oc3ccc4c(c3)OCO4)cc2NC1=O (centres undefined)
 : nt | 0.4
93	Cc1cc(N(C(=O)c2ccc3c(=O)n4c(nc3c2)CCCCC4)C(=O)c2ccc3nc4n(c(=O)c3c2)CCCCC4)no1
 : nt | 0.4
94	COc1ccccc1C(=O)Nc1ccccc1N1CCN(C(C)=O)CC1
 : -0.11 | 2.1
95	O=C(O)CCC(=O)N1CCCN(Cc2ccccc2)CC1
 : 0.2 | nt
96	Cc1ccc(NC(=O)CSc2nnc(NC(=O)CSc3nnc4n(N)cnn34)s2)cc1
 : 0.075 | nt
97	Cc1sc2ncn(C(C)C(=O)OC3CCCCC3)c(=O)c2c1C (centres undefined)
 : nt | 0.2
98	COC(=O)c1ccc(-c2ccc(/C=N/NC(=O)CC3(C)OCCCO3)o2)cc1
 : nt | -0.2
99	COc1cc(/C=N/NC(=O)c2cccnc2)ccc1OC(=O)OC(C)(C)C
 : -1.5 | nt
100	CC(Cc1ccccc1)N/C=C1/CC(=O)NC1=O (centres undefined)
 : -0.22 | -1.6
101	O=C(COC(=O)c1ccc2c(c1)OCO2)c1ccccc1
 : nt | 0
102	CCOc1ccccc1NC(=O)N1CCOc2ccc(C)cc21
 : 0.3 | -0.1
103	O=C(O)CCC(=O)Nc1ccc(-c2nc3ccc(NC(=O)CCC(=O)O)cc3[nH]2)cc1
 : 101 | -0.95
104	CN(NC(=O)NC(=O)c1c(Cl)cccc1Cl)c1ccc(C(F)(F)F)cc1[N+](=O)[O-]
 : 0.2 | nt
105	O=C(OCc1nc2ccccc2[nH]1)C12CC3CC(CC(C3)C1)C2
 : 2.8 | -1
106	CCCC1(CCC)NC(=O)NC1=O
 : nt | 1.1
107	O=S(=O)(c1ccc(OC(F)(F)F)cc1)N1CCNCC1
 : 0.6 | 0.55
108	NC(=O)CS(=O)(=O)c1cn(CC(=O)N2CCOCC2)c2ccccc12
 : nt | -0.55

# Later entries
# Every second line gives: Ba CapD inh | AID504770
109	Cc1cc(/C=N\NC(N)=S)c2c(C)ccc(C(C)C)cc1-2
 : -0.55 | nt
110	Cc1ccc(S(=O)(=O)CCC(=O)OCc2c(C)noc2C)cc1
 : nt | 0.4
111	CCSc1nc2c(c(=O)n1-c1cc(C)cc(C)c1)SCC2
 : nt | 2
112	O=C(CC1OC(=O)c2ccccc21)NC1CC1 (centres undefined)
 : nt | 0.95
113	CC1(C)CC(=O)C2=C(C1)c1c(ccc3ccccc13)NC2c1cn(Cc2ccc(Cl)cc2)c2ccccc12 (centres undefined)
 : 32 | nt
114	O=C(CSc1nnc(CNC(=O)c2ccccc2)o1)c1ccccc1
 : nt | 1.1
115	O=C(c1ccc(F)cc1)C1CCN(C(=O)CC2Cc3ccccc3C2)CC1
 : 0.36 | nt
116	CN1CCC(N(C)S(=O)(=O)c2ccc(C(=O)NN)cc2)CC1
 : nt | 0.55
117	CCOC(=O)c1csc(NC(=O)c2ccccc2OC)n1
 : -0.3 | -0.9
118	CN(C)S(=O)(=O)c1ccc(SCC(=O)NN2C(=O)NC3(CCCCC3)C2=O)nc1
 : nt | 0.05
119	Cc1ccc(CSc2ncn(-c3ccccc3)n2)cc1
 : -0.04 | 0.4
120	O=C(Cc1ccccc1)NCCN1CCOCC1
 : 0.11 | 0.7
121	O=C(CSc1ccccc1)Nc1ccc(NC(=O)c2ccco2)cc1
 : nt | -0.75
122	Cc1ccc2nc(-c3nc4ccccc4s3)sc2c1
 : nt | -0.6
123	O=C(O)CSCC(=O)N1CCN(c2nc3cc(Cl)ccc3s2)CC1
 : 0.22 | 0.05
124	O=C(CSC1=NC(=O)C(Cc2ccccc2)C(=O)N1)NC1CCCCC1 (centres undefined)
 : 0.33 | nt
